Assay outcomes: PubChem, several laboratories
Vif TR-FRET: HIV-1 Vif–A3G interaction blockers – biochemical, TR-FRET, GST-Vif 1-94, biotin-A3G peptide, dose response retest, primary screen (AID 1117319) | hit rate 0.57% among 260,000 | TR-FRET GST-Vif / biotin-A3G peptide binding; higher % means a stronger effect; test concentration not given here; strong numbers were not always called active | inhibition, %, or IC50 in µM where a hit was titrated;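 active = above the screen mean plus three standard deviations and confirmed in dose response; inconclusive = results disagree or hit not tested in dose response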;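 note: Vif residues 1-94 fused to GST binding biotinylated APOBEC3G peptide 110-148; 0% = full assay without inhibitor and 100% = GST in place of GST-Vif; retest series ran down from 100 µM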
LANA-H2B inh: blocks KSHV LANA binding to histone H2A/H2B | Q9QR71 | cell-free LANA-H2A/H2B peptide, fluorescence polarization | inhibition, % (concentration not given with the values) | hit rate 0.6% among 320,000; in the data active = inhibition mostly above about 10%, no sharp cut-off; inactive = mostly below about 6.7%;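 note: stock transfer was 7.5 nL into about 10 µL; 0% = median of vehicle wells and 100% = median of positive control wells; one replicate is shown; the record names a cut of 25% in any replicate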
Target sequence (Q9QR71 whole entry, looked up): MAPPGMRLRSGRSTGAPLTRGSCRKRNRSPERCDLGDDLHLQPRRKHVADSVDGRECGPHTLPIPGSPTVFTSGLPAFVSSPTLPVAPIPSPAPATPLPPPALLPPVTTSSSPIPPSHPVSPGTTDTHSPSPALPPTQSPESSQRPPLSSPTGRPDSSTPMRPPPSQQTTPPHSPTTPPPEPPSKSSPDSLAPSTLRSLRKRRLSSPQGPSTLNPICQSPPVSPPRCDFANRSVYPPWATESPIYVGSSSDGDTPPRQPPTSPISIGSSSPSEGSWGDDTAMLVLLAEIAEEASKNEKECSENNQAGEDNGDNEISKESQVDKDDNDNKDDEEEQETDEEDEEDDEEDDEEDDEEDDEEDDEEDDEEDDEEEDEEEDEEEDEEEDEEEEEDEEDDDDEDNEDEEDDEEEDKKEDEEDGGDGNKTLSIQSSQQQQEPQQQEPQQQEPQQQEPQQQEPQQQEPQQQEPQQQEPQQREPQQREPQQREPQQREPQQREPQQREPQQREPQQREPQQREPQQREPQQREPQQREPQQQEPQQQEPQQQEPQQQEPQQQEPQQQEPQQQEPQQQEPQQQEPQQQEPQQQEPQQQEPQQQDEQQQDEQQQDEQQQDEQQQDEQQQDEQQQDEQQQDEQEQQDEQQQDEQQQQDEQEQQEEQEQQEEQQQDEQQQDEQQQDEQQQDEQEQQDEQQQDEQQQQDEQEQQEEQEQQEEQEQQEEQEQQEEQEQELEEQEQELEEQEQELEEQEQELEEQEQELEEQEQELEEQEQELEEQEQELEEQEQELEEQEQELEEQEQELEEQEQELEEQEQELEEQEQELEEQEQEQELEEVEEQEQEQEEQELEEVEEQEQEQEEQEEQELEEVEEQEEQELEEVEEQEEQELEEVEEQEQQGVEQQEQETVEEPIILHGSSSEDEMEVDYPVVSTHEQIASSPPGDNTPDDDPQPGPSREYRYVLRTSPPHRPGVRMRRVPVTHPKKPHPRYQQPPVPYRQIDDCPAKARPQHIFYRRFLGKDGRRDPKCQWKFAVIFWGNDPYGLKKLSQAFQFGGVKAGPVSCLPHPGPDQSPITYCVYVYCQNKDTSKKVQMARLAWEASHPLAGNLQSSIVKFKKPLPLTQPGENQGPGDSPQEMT
ALR inh: human ALR oxidase inhibition via reduced H2O2; hit rate 3.8% among 290,000; P55789; purified ALR, DTT oxidation, H2O2 HRP-luminol luminescence; AID 485317; inhibition, % (concentration not given with the values);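 active = mean and each replicate at 75% or more; inconclusive = only one of the two met; inactive = neither met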;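 note: stock transfer was 7.5 nL into about 7.5 µL; 0% = neutral wells and 100% = wells with inactivated enzyme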
HNF4A DNA FP: change in binding of human HNF4 alpha to DNA. AID 1224865. hit rate 0.3% among 360,000. activity change, % at 10 µM. HNF4a-FITC DNA binding, fluorescence polarization, 1 h. P41235; in the data active = activity change above about 30%, passing the limit was not always enough;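 note: controls were the assay level and a saturating level of protein; the project sought stronger binding though the title names inhibitors; some compounds called inactive have numbers as strong as hits; positive values seem to mean higher polarization but the record does not say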
Beta2AR agonist: human beta-2 adrenergic receptor agonism by FAP; AID 504454; response, % (concentration not given with the values); P07550; hit rate 0.43% among 340,000; Am2.2-beta2AR cells, FAP receptor internalization, flow cytometry; reference of the scale not given here;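 active = response above a set limit, near 3 SD of response in nonfluorescent compounds, cut at about 42% in these data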;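 note: stock transfer was 100 nL into about 11 µL; a reference agonist was the positive control; negative values mostly stem from fluorescent compounds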
Calb FLC: C. albicans growth modulation with fluconazole; C. albicans CaCi-2 (fluconazole-resistant clinical isolate) + fluconazole, Alamar Blue growth, 48 h; AID 1979; hit rate 0.57% among 300,000; growth inhibition, % (test concentration not listed);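 active = most replicates above 75%; inconclusive = exactly half above 75%; inactive = most below 75%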;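 note: all wells also contain fluconazole at 8 µg/ml as a sub-toxic cotreatment; 0% = median of DMSO wells and 100% = median of geldanamycin control wells; wells of about 8 µL received 7.5 nL stock; the first replicate is given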
RanGTP-Imp inh: inhibitors of RanGTP-importin-beta interaction, primary screen, biochemical, FRET, CFP-Ran, YFP-importin-beta, homogeneous. cell-free CFP-Ran/YFP-importin-beta FRET ratio. inhibition, % (test concentration not listed). hit rate 1.1% among 300,000. AID 2216;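 active = most replicates above 15%; inconclusive = exactly half above 15%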;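 note: 0% = DMSO wells and 100% = Ran loaded with GDP instead of GTP; wells of about 40 µL received 100 nL stock; the first replicate is given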
* = called active by the depositor; ? = inconclusive; / = no result given; & = joins results of further samples.

SMILES	Vif TR-FRET	LANA-H2B inh	ALR inh	HNF4A DNA FP	Beta2AR agonist	Calb FLC	RanGTP-Imp inh
COC(=O)c1ccc(C2Nc3cccc4cccc(c34)N2)cc1	/	4.6	40	0.8	8	-2	-0.1
CCCN(C(=O)c1ccc(N2CCCC2=O)cc1)c1c(N)n(Cc2ccccc2)c(=O)[nH]c1=O	-2%	-2.5	-17	-1.6	-3	-6	2.9
CCOC(=O)CSc1nnc(Cn2c(=O)sc3ccccc32)n1C	4%	1.3	-7	-2.7	4	-8	0.3
O=C(CCOc1ccccc1)Nc1ccnn1C1CCN(CCc2ccccc2)CC1	/	3.8	-6	-0.6	3	12	2.6
CCCS(=O)(=O)N1CCN(C(=O)c2cccnc2)CC1	-2%	-0.1	-2	2.0	7	-12	-2.5
OCCN1CCN(C(=S)Nc2ccc(SC(F)F)cc2)CC1	3%	-5.5	-5	0.8	-1	-4	4.8
O=C(CCN1C(=O)/C(=C/c2ccc(F)cc2)SC1=S)NNC(=O)c1cccnc1	/	2.7	-1	-3.2	-6	-11	0.0
O=C1c2sc3nc4ccccc4n3c2C(=O)N1c1ccccc1Cl	-6%	-1.7	-28	4.7	46*	-7	-2.6
O=C(Cc1ncn[nH]1)NCCc1ccccc1	97µM*	-3.1	-7	-0.2	-5	-6	1.1
CCN(CC)S(=O)(=O)c1cc(Br)c(C)cc1OC	0%	-8.6	-5	-1.5	-8	3	-0.6
O=C(Cc1ccc2c(c1)CCCC2)Nc1ccccc1Cl	-4%	-1.7	-2	-4.8	-8	-6	-0.3
COc1ccc(-c2ccc(C(C)=O)cc2)cc1[C@H]1[C@@H]2C=CCC[C@@]2(C)C(=O)N1Cc1ccccc1	/	1.8	/	0.4	4	/	/
C=CCc1cccc(OC)c1OCCOCCNCCO	4%	-3.7	0	-2.4	12	/	5.2
Cc1cc2ncn(C3CC(O)C(CO)O3)c2cc1C (configuration not stated)	2%	/	/	0.8	0	/	/
CCc1nnc(NC(=O)CC(=O)Nc2ccccc2C(=O)O)s1	3%	-4.4	17	1.7	-2	-12	-5.8
C=CCOC(=O)CCC(=O)Nc1cc(OC)nc(OC)n1	8%	-2.0	-2	-3.8	11	-14	0.2
O=C(CSC(=S)N1CCCC1)N1CCN(S(=O)(=O)c2ccccc2F)CC1	1%	1.3	-19	0.9	-5	-2	?
O=C(CN1CCN(Cc2ccc3c(c2)OCO3)CC1)Nc1ccc2c(c1)OCO2	-4%	-1.7	-2	1.8	-2	-3	-11
COc1ccc(SC[C@H](Cc2ccccc2)N2CC[C@@H](C)CCC2=O)cc1	/	-2.2	-25	0.8	-3	/	/
Cc1ccc(C(C(=O)NCc2ccccc2)N(Cc2ccco2)C(=O)c2snc(C(N)=O)c2N)o1 (configuration not stated)	/	2.9	4	3.0	13	-1	-2.2
Cc1ccc(/C=C(\C#N)C(=O)NCc2ccco2)o1	3%	-0.2	-3	-0.3	0	-1	8.6
COC(=O)c1ccc(NC(=S)N2CCN(Cc3ccccc3)CC2)cc1	11%	-0.2	-1	3.0	8	-35	6.6
c1cncc(-c2cn(C[C@H]3CC[C@@H]([C@@H]4CC[C@H](Cn5cc(-c6cccnc6)nn5)O4)O3)nn2)c1	/	2.0	-1	-1.9	-5	-9	-4.0
O=C(C(O)c1ccccc1)N1N=C(c2ccccc2)CC1(O)C(F)(F)F (configuration not stated)	1%	-6.9	0	-1.8	1	26	-0.2
COc1ccc(/C=N/Nc2nc3ccccc3[nH]2)cc1OC	/	2.4	99*	-1.0	-14	5	?

Continued:
SMILES	Vif TR-FRET	LANA-H2B inh	ALR inh	HNF4A DNA FP	Beta2AR agonist	Calb FLC	RanGTP-Imp inh
COCC(=O)N[C@@H]1c2cc(OC)c(OC)cc2C[C@H]1OCc1ccccc1	-2%	/	/	-4.9	2	/	/
CC(C)CCNC(=O)C1CCC(CNS(=O)(=O)c2ccc(Cl)cc2)CC1 (configuration not stated)	-14%	2.5	-12	-3.2	-2	-5	-2.2
COc1cccc2oc3ccc(C#Cc4ccccn4)cc3c(=O)c12	/	1.6	-2	-3.5	7	-4	3.4
CC(=O)NC(CCS(C)(=O)=O)C(=O)Nc1c(F)cccc1F (configuration not stated)	0%	2.9	1	-1.0	7	1	1.0
C=CCOc1ccc(/C=C/C(=O)OCC(=O)NC2CCCCCC2)cc1	/	-0.9	4	2.9	-3	-4	-0.7
Cn1nc(C(F)(F)F)cc1Oc1ncc(C(F)(F)F)cc1Cl	-2%	-4.0	-12	-3.6	-2	25	12
CSCCC(NS(=O)(=O)c1ccccc1F)C(=O)Nc1ccncc1 (configuration not stated)	1%	6.9	-6	-3.5	-8	/	/
C#CCOC(=O)C[N+](C)(C)CC#Cc1ccccc1	12%	3.8	-13	10	-2	1	-2.8
CCN(CC)C(=O)CSc1nnc([C@H](Cc2c[nH]c3ccccc23)NC(=O)OC(C)(C)C)o1	?	-1.0	/	-2.2	-4	-6	6.7
Cc1c(NC(=O)Cn2nc(C(=O)O)c3ccccc3c2=O)c(=O)n(-c2ccccc2)n1C	1%	3.6	11	1.5	-8	1	6.7
Cc1ccc(C(=O)c2ccccc2C(=O)O)s1	1%	3.6	-7	3.4	-2	4	4.0
Cc1ccccc1C(=O)N1CCC(C(=O)Nc2ccc(S(=O)(=O)N3CCOCC3)cc2)CC1	-12%	-2.4	/	-4.6	-11	/	/
CCN1CCN(C(c2ccc(OC)c(OC)c2)c2nnnn2C(C)(C)C)CC1 (configuration not stated)	7%&25%	/	/	4.8	2	1	1.4
Cc1ccc(Cn2ncc3c(N4CCN(Cc5ccc(Cl)cc5)CC4)ncnc32)cc1	?	6.5	-5	1.8	5	18	-3.2
Cc1ccc(-c2nn(-c3ccccc3)cc2C(=O)NCCCN2CCCC2=O)cc1	/	-4.7	/	-0.5	-28	2	4.7
CCOC(=O)C1(Cc2cccc(Cl)c2)CCCN(C(=O)c2cc(C)n(C)n2)C1 (configuration not stated)	-4%	1.6	-9	0.8	-8	-1	-0.5
CC1CCN(CC(=O)Nc2ccc(S(=O)(=O)N3CCCC(C)C3)cc2)CC1 (configuration not stated)	-4%	5.7	-6	-1.3	-2	18	4.6
CCOC(=O)c1nnsc1Nc1ccc(C)c(C)c1	5%	-1.1	-4	1.2	-4	-33	/
COc1ccc(OC)c(C(c2nnnn2Cc2ccccc2)N2CCN(C)CC2)c1 (configuration not stated)	4%&-2%	-3.2	-8	1.8	1	9	1.2
Cc1cc(C)c(C(=O)c2ccc(C(=O)N(C(C)C)C(C)C)cc2)c(C)c1	-3%	-1.6	-1	4.0	4	-6	7.1
COc1ccc(C(CC(=O)c2ccc(C)cc2)C(C#N)C#N)cc1OC (configuration not stated)	-7%	5.5	51	-0.1	11	-1	?
CC(C)c1csc(CN2CCC(CCC(=O)NCC3CCCO3)CC2)n1 (configuration not stated)	22%	4.8	-15	1.2	-4	-3	4.1
O=C(N/N=C/c1cccc(O)c1)N/N=C/c1cccc(O)c1	2%	1.2	82*	-0.7	14	1	-2.0
O=C(C[C@@H]1C/C=C\CCC(=O)O[C@H](c2ccccc2)CNC1=O)N[C@H](CO)Cc1ccccc1	/	2.8	1	1.9	-2	/	/
CC(C)(C)SCCNC(=O)CSc1ccccc1	/	0.0	-7	5.0	-2	-9	?

Next section.
SMILES	Vif TR-FRET	LANA-H2B inh	ALR inh	HNF4A DNA FP	Beta2AR agonist	Calb FLC	RanGTP-Imp inh
COCCn1c(SCC(=O)Nc2ccc(F)cc2)nc2ccccc2c1=O	/	-0.7	5	0.0	-5	-11	-3.2
O=C(c1ccccc1)N1CCN(CC(O)COc2cccc3ccccc23)CC1 (configuration not stated)	-5%	-3.0	-23	-3.6	8	-6	-2.5
Cc1cc(=O)c(C(=O)O)cn1Nc1ccc(Cl)cc1	0%	-1.3	-4	0.6	3	6	6.9
COc1ccc(-c2nc3ccccn3c2CN2CCN(c3ccccc3F)CC2)cc1	-2%	-1.9	/	4.5	-12	19	1.1
N#Cc1ccsc1NC(=O)c1cnccn1	-1%	-0.9	/	3.8	3	25	-4.5
Cc1cc(NC(=O)CSc2ncn[nH]2)no1	/	-6.4	17	-2.0	-3	11	0.0
COCCCNC(=O)/C(=C\c1cccn1C)NC(=O)c1cccs1	/	/	/	-4.2	0	-5	-0.3
O=C(Nc1ccc2oc(-c3ccncc3)nc2c1)c1c(F)c(F)c(F)c(F)c1F	-13%	1.5	/	4.3	2	/	/
Cc1ccccc1S(=O)(=O)Cc1ccc(C(=O)NC2CC2)o1	1%	4.6	1	6.8	3	1	-1.2
CC1=C(C(=O)Nc2ccccc2F)C(c2cccs2)C2=C(CCCC2=O)N1 (configuration not stated)	0%	-6.4	/	0.3	-5	2	-2.4
Nc1nc(SCC(=O)N2CCCC2)[nH]c(=O)c1NC(=O)c1ccco1	-3%	-3.9	/	-0.2	6	-1	1.4
CCOC(=O)C1CCCN(C(=O)C(=O)c2cn(CC(=O)N3CCOCC3)c3ccccc23)C1 (configuration not stated)	-7%	1.1	-19	2.7	9	0	?
C[C@H](OC(=O)NCc1ccc(C(F)(F)F)cc1)[C@@H]1O[C@@]2(C)CCC[C@@H]1O2	/	-1.1	-7	2.1	-7	/	/
Cc1cccc(C)c1NC(=O)CSc1nnc(-c2ccoc2C)n1C	-5%	2.5	-1	0.7	2	-1	-3.0
CC(=O)Nc1cc(NC(C)=O)cc(C(=O)OCC(=O)Nc2ccc(S(=O)(=O)NC3=NCCCCC3)cc2)c1	-1%	5.9	-7	3.5	-4	-14	0.6
O=C(N/N=C/c1ccc(F)cc1)c1cccc(NC(=O)c2ccc(F)cc2)c1	/	1.7	-2	2.8	11	6	3.0
COCCNCCOCCOc1cccc(OC)c1	6%	9.4	-35	-0.5	1	-8	7.2
CN(C)S(=O)(=O)c1cccc(C(=O)OCC(=O)Nc2ccccc2OC(F)F)c1	-1%	5.3	-4	1.7	1	-5	-4.8
CC(=O)Nc1cccc(-c2cc(-c3c(Cl)cccc3Cl)no2)c1	70%	-0.2	-7	0.0	4	7	-3.8
CCCCNC(=O)N1CCN(Cc2cccc(F)c2)CC1	3%	-3.1	-3	-2.7	4	3	4.9
Cc1ccccc1OCCSc1nc2ncnc(N)c2[nH]1	0%	0.0	-2	-0.3	6	32	1.3
Cc1sc(NC(=O)c2ccco2)c(C(=O)c2ccc(Cl)cc2)c1C	0%	1.4	97*	0.5	-12	47	-0.5
O=C(Cc1ccc(Cl)cc1)Nc1ccc2oc(=O)ccc2c1	-1%	-3.0	-2	-1.5	-7	-3	4.5
CCOC(=O)C1CCN(c2c(C(=O)c3ccccc3)cnc3ccc(CC)cc23)CC1	0%	-0.8	2	-0.2	10	0	-3.2
Cc1ccc(C)c(OCCC(=O)Nc2cccc(S(=O)(=O)N3CCCC3)c2)c1	-5%	-4.5	0	1.3	-1	-5	/

(further entries)
SMILES	Vif TR-FRET	LANA-H2B inh	ALR inh	HNF4A DNA FP	Beta2AR agonist	Calb FLC	RanGTP-Imp inh
Cc1nn(C)c(C(=O)NNC(=S)NCc2ccco2)c1Cl	/	0.8	12	-0.2	-2	17	0.9
CCN(CC(=O)Nc1ccc(OC)cc1)CC(=O)Nc1ccc2c(c1)OCO2	-15%	2.7	4	-2.1	-17	/	/
CCOC(=O)c1ccc(NC(=O)N2CCN(c3ccccn3)CC2)cc1	19%	1.8	-9	1.3	-2	-1	0.6
COc1cc(N=Nc2c(O)c3ccccc3[nH]c2=O)c(OC)cc1N=Nc1ccccc1	1%	7.5	/	-0.6	4	8	-2.9
CCSc1nc2ccccc2n1C(=O)/C=C/c1ccc(OC)c(OC)c1	5%	0.8	20	1.9	42*	?	0.7
N#C/C(=C\c1ccncc1)C(N)=O	/	0.5	8	-0.1	5	4	1.2
CCc1nc(SCc2ccc(OC)cc2)n[nH]1	/	-0.9	-7	-18	-13	-4	1.7
Cc1cc2nc(CCN(Cc3cccnc3)C(=S)Nc3ccccc3)[nH]c2cc1C	3%	4.0	-8	2.1	0	11	-8.0
